GIRK2 activ = GIRK2 channel activation. P48051. HEK293-GIRK2 thallium flux, Thallos fluorescence. calls only for hits at 25 µM. hit rate 0.05% among 63,000;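 active = among the strongest 0.2% of first-round signals and kept after retests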;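 note: first round at about 10 µM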
Target sequence (P48051 whole entry, looked up): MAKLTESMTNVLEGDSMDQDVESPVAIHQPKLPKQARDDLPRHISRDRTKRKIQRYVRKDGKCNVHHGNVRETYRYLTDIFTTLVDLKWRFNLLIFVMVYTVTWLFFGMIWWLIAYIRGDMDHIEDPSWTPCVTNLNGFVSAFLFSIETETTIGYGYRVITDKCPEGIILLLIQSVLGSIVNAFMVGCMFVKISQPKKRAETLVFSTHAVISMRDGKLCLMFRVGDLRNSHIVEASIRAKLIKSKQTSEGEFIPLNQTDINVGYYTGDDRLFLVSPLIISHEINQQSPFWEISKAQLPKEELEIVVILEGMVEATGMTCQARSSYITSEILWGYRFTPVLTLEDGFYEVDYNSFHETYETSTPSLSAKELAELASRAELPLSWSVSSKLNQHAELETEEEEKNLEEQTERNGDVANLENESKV
Calls only; i = inactive; + = active, no number. Some of the compounds tested. The share of hits here may be higher or lower than overall.

Structure | GIRK2 activ
O=C(Nc1n[nH]c2nc(-c3ccco3)c(Br)cc12)C1CC1 | i
O=C(N1CCCSCC1CN1CCCC1)C1(c2ccccc2)CCOCC1 (centres undefined) | i
Cc1cccc(Cn2c(=O)c3c(nc4n(-c5ccc(C(N)=O)cc5)c(C)cn34)n(C)c2=O)c1 | i
O=C(NCc1cc(-c2ccncc2)n(C2CCCC2)n1)Nc1cccs1 | i
O=C(/C=C/c1ccccc1)N1CCN(c2cc(Nc3ccccn3)ncn2)CC1 | i
CC(C)c1ccc(OCC(=O)NC2CC(=O)N(C3CC3)C2)cc1 (centres undefined) | i
COc1ccccc1CNC(=O)Cn1c(=O)[nH]c2c(-c3ccccc3F)c[nH]c2c1=O | i
CCOc1ccc(N(C)S(=O)(=O)c2ccsc2C(=O)NCc2cccc(OCC)c2)cc1 | i
Cc1ccc(C(=O)Nc2cc(C)nn2-c2nc(-c3ccccc3)cs2)cc1 | i
Cc1cccc(OCCn2c(CO)nc3ccccc32)c1C | i
COc1ccc(-n2ncc(C(=O)N3CC=C(c4ccccc4)CC3)c2-n2cccc2)cc1 | i
COc1cccc(C(=O)N2CCN(c3ncnc4c3nnn4-c3ccccc3)CC2)c1 | i
Cn1c(=O)n(CC(N)=O)c(=O)c2c1nc1n2CCCN1c1ccc(Cl)cc1 | i
Nc1cccc(O)c1 | i
COc1ccc(-c2nc(CN(c3ccc(OC)cc3)S(=O)(=O)c3ccccc3)c(C)o2)cc1 | i
Cn1nc(C2CCN(S(=O)(=O)/C=C/c3ccccc3)CC2)n(-c2ccccc2)c1=O | i
Cc1ccc(N2CCN(CC(=O)Nc3ccccc3Cl)C2=O)cc1 | i
O=C(OC1C=C(CO)C2C(OC3OC(CO)C(O)C(O)C3O)OC=CC12O)c1ccc(O)cc1 (centres undefined) | i
Cc1ccc(-n2c(-c3cccc([N+](=O)[O-])c3)cnc2SCC(=O)NC(C)C)cc1 | i
O=C(CCn1ccc(=O)[nH]c1=O)N1CCC(c2nnc(-c3ccc(F)cc3)o2)CC1 | i
O=C(COc1coc(C(=O)Nc2ccncc2)cc1=O)Nc1ccccc1 | i
Cc1cc(=O)oc2cc(OCC(O)Cn3cnc4ccccc43)ccc12 (centres undefined) | i
Cc1cc(NC(=O)C2COCC(=O)N2Cc2cccs2)no1 (centres undefined) | i
CCN(CC)C(=O)N1CCN(S(=O)(=O)c2ccc(F)cc2)CC1 | i
NC(=O)CN1CCN(Cc2nc(-c3ccccc3)cs2)CC1 | i
Cc1nn(C)c(C)c1S(=O)(=O)NCC1CCN(C(=O)c2ccoc2)CC1 | i
CCCCN1C(=O)CCc2cc(NC(=O)c3ccccc3OC)ccc21 | i
CNC(=O)C1CCN(c2nc3ccc(OC)cc3s2)CC1 | i
COC(=O)c1ccc(NC(=O)Cn2c(C)cc(C)c(S(=O)(=O)c3ccc(C)cc3)c2=O)cc1 | i
CC(C)Cn1c(=O)[nH]c2c1c(=O)n(C)c(=O)n2C | i
O=C(Nc1cccc(-c2ccn[nH]2)c1)c1cnn(-c2ccccc2)n1 | i
Cc1cc(C(=O)N2CCOCC2)n(CC(=O)Nc2ccc(C)c(Cl)c2)n1 | i

Some of the entries above in another layout.
GIRK2 activ | canonical_smiles
i | NC(=O)CN1CCN(Cc2nc(-c3ccccc3)cs2)CC1
i | Cc1nn(C)c(C)c1S(=O)(=O)NCC1CCN(C(=O)c2ccoc2)CC1
i | CCCCN1C(=O)CCc2cc(NC(=O)c3ccccc3OC)ccc21
i | CNC(=O)C1CCN(c2nc3ccc(OC)cc3s2)CC1
i | COC(=O)c1ccc(NC(=O)Cn2c(C)cc(C)c(S(=O)(=O)c3ccc(C)cc3)c2=O)cc1
i | CC(C)Cn1c(=O)[nH]c2c1c(=O)n(C)c(=O)n2C
i | O=C(Nc1cccc(-c2ccn[nH]2)c1)c1cnn(-c2ccccc2)n1

(listing goes on)
Structure | GIRK2 activ
Cc1ccc(-n2nnc(C(=O)Nc3ccc(S(N)(=O)=O)cc3)c2C)cc1Cl | i
CCCc1cnc2c(c1SCC(=O)Nc1ccc3c(c1)OCO3)c(=O)n(C)c(=O)n2C | i
O=C(C1=Cc2ccccc2OC1)N1CCCc2ccccc21 | i
CCOc1ccc(-c2ccc(=O)n(CCNS(=O)(=O)c3ccc(Oc4ccccc4)cc3)n2)cc1 | i
Cc1c(CNC(=O)COc2ccc3c(c2)OCO3)sc2nc(-c3ccc(F)cc3)cn12 | i
O=C(Cc1csc(Nc2ncccn2)n1)NCC(F)(F)F | i
CC(C)(C)c1ccc(OCC(O)CN2CCOCC2)c(C(C)(C)C)c1 (centres undefined) | i
Cc1ccc(Cl)cc1NC(=O)c1nnn(-c2cc(Cl)ccc2C)c1C | i

Molecules listed so far that contain an NH in an aromatic ring (five):
Structure | GIRK2 activ
O=C(Nc1n[nH]c2nc(-c3ccco3)c(Br)cc12)C1CC1 | i
COc1ccccc1CNC(=O)Cn1c(=O)[nH]c2c(-c3ccccc3F)c[nH]c2c1=O | i
O=C(CCn1ccc(=O)[nH]c1=O)N1CCC(c2nnc(-c3ccc(F)cc3)o2)CC1 | i
CC(C)Cn1c(=O)[nH]c2c1c(=O)n(C)c(=O)n2C | i
O=C(Nc1cccc(-c2ccn[nH]2)c1)c1cnn(-c2ccccc2)n1 | i

Other entries
Structure | GIRK2 activ
O=C(c1cc2cc(Cl)ccc2oc1=O)N1CCN(c2ccccn2)CC1 | i
Cc1ccc(CNC(=O)c2c(N)n(N)c3nc4ccccc4nc23)cc1 | i
O=c1c2ccccc2nc2sc(Nc3ccc(F)c(Cl)c3)nn12 | i
O=c1[nH]c(=S)c2c(n1CCc1c[nH]c3ccccc13)CCC2 | i
O=C(NCC(O)c1ccc2c(c1)CCO2)c1ccc2nsnc2c1 (centres undefined) | i
Cc1noc(CNC(=O)c2ccc(-c3ccccc3)cc2)n1 | i
CCOc1ccccc1-n1nnc2c(=O)n(Cc3nc(-c4ccc(OC)cc4OC)no3)cnc21 | i
Cc1cccc(C)c1NC(=O)Cn1c(=O)nc(N2CCC(C)CC2)c2ccccc21 | i
CN(C)C(CNS(=O)(=O)c1ccc(N2CCCCS2(=O)=O)cc1)c1ccco1 (centres undefined) | i
Clc1ccc(-c2csc(Cc3nc(-c4ccncc4)no3)n2)cc1 | i
COc1cccc2cc(S(=O)(=O)N3CCc4ccccc4C3)c(=O)oc12 | i
COC(=O)c1ccc(COc2coc(CN3c4ccccc4CC3C)cc2=O)cc1 (centres undefined) | i
CCCNC(=O)C(=O)NCC1OCCCN1S(=O)(=O)c1ccc(OC)c(C)c1 (centres undefined) | i
COc1cccc(-n2nnc(C(=O)Nc3ccc(C(C)=O)cc3)c2C)c1 | i
CN(C)c1cccc(C(=O)N2CCC(c3ccccc3)C2)c1 (centres undefined) | i
CCOc1ccccc1NC(=O)NCCc1nc(-c2cccs2)cn1C | i
COC(=O)N1CCC(CNC(=O)c2ccccc2Br)CC1 | i
COCCNC(=O)c1nnn(-c2ccc(NC(=O)CCc3ccccc3)cc2)n1 | i
COc1cccc2cc(C(=O)N3CCCC(c4nnc(-c5ccccc5F)s4)C3)c(=O)oc12 (centres undefined) | i
O=C(Nc1nc2c(s1)CN(C(=O)C1CC(=O)N(c3ccccc3)C1)CC2)c1ccoc1 (centres undefined) | i
Cc1ccc(CNC(=O)Cn2c(C)nc3c(sc4ccccc43)c2=O)cc1 | i
Cc1ccc(NC(=O)CSc2nnc(C)c3cnn(-c4ccccc4)c23)c(C)c1 | i
Cc1cc(C)n(-c2cc(N3CCN(C(=O)c4cc5ccccc5oc4=O)CC3)ncn2)n1 | i
Cn1c(SCC(=O)NCCCc2ccccc2)nc2c(-c3ccccc3)csc2c1=O | i

(list continues)
Molecule | GIRK2 activ
O=C(COc1cccc2c1CCNC2=O)NC1CCCCC1 | i
O=C(Cc1ccccc1Cl)N1CCN(S(=O)(=O)C2CC2)CC1 | i
COc1ccc(Cl)cc1NC(=O)c1nnn(-c2ccc(C)cc2)c1C1CC1 | i
Cc1ccc(Cl)c(Nc2ccccc2C(=O)NCc2ccc(C(F)(F)F)cc2)c1Cl | i
COc1ccc(-c2csc3c(=O)n(CC(=O)Nc4cc(C(F)(F)F)ccc4Cl)cnc23)cc1 | i
Cc1nc(-c2cccc(NC(=O)C3(c4cc(-c5ccco5)on4)CC3)c2)cs1 | i
Nc1nc2ncc(CNc3ccc(C(=O)N[C@@H](CCC(=O)O)C(=O)O)cc3)nc2c(=O)[nH]1 | i
CCOc1ccccc1-n1c(C)c(C)n2c3c(=O)n(CCc4ccccc4)c(=O)n(C)c3nc12 | i
Cc1cc(=O)n(CC(=O)Nc2cccc(F)c2)c(N2CCCC2)n1 | i
Cc1ccc(N2CC(C(=O)Nc3cc(-c4cccs4)nn3-c3nc(C)c(C)c(=O)[nH]3)CC2=O)cc1 (centres undefined) | i
Cc1ccc(O)c2c1C[C@@H](C)OC2=O | i
Cc1ccccc1-n1nnc(C(=O)Nc2cccc(C(C)C)c2)c1-c1ccncc1 | +
O=C(NCc1n[nH]c(=O)c2ccccc12)c1ccccc1[N+](=O)[O-] | i
Cc1ccc2c(=O)c(C(=O)N3CCC(C)CC3)cn(CC(=O)Nc3c(C)cccc3C)c2n1 | i
O=C(Nc1ccc(Cl)c(Cl)c1)N(CCc1cccs1)C1CC1 | i
COC(=O)c1c(NC(=O)C2CCN(S(=O)(=O)c3ccc(F)cc3)CC2)sc2c1CCC(C)C2 (centres undefined) | i
O=C(NCCn1cnc(-c2ccc(F)cc2)cc1=O)c1cc(-c2ccc(F)cc2)n[nH]1 | i
CC(NC(=O)CSc1ccc(-c2nc(-c3ccccc3)no2)cn1)c1ccc(F)cc1 (centres undefined) | i
Cc1ccc(C(=O)N2CCN(c3nc(C)cc(N4CCCC4)n3)CC2)cc1 | i
CC(C)c1nnc(SCc2ccccn2)c2c1cnn2-c1ccccc1 | i
Cc1cc(NCCN2CCOCC2)n2nc(C(F)(F)F)nc2n1 | i
COc1ccc(C(=O)N2CCN(c3oc(-c4cccc(OC)c4)nc3C#N)CC2)cc1 | i
O=C(c1ccc([N+](=O)[O-])s1)N(CCN1CCOCC1)c1nc2ccccc2s1 | i
COc1ccccc1NC(=O)CSc1nccn1-c1cccc(C(=O)NCc2ccc(C)o2)c1 | i
O=C(NCC1CCN(C(=O)c2ccncc2)CC1)c1ccccc1C(F)(F)F | i
CCNC(=O)NCC(c1cn(C)c2ccccc12)N(C)C (centres undefined) | i
CCOC(=O)Cn1c(=O)c2c(nc3n(-c4cc(OC)ccc4OC)c(C)cn23)n(C)c1=O | i
COc1ccc2nc(N(CCN3CCOCC3)C(=O)c3ccc(Cl)s3)sc2c1 | i
N#Cc1cnc2ccccc2c1N1CCC2(CC1)OCCO2 | i
O=C(CCCCc1ccccc1)C(F)(F)C(F)(F)F | i
CCC(O)c1nc2ccccc2n1CCCCOc1ccc(C)cc1 (centres undefined) | i
CCSc1ccccc1C(=O)NCC1(O)CCOc2ccccc21 (centres undefined) | i
Cc1c(-c2nc(-c3ccccc3)no2)sc2ncn(CC(=O)Nc3ccc(F)cc3F)c(=O)c12 | i
CCOc1ccc(NC(=O)c2cn(Cc3ccc(NC(=O)c4ccc(Cl)cc4)cc3)cn2)cc1 | i
O=C(c1ccc(F)c(F)c1)N(C(=O)N1CCCCC1)c1ccc(Cl)cc1 | i
CC1CC(=O)[C@]2(O)C(C(=O)OCCc3ccc(O)c(O)c3)=CO[C@@H](O[C@@H]3O[C@H](CO)[C@@H](O)[C@H](O)[C@H]3O)[C@H]12 (some centres undefined) | i
COc1coc(C(=O)N2CCN(c3cccc(Cl)c3Cl)CC2)cc1=O | i
CCn1c(N=Cc2ccccc2Cl)nc2c1c(=O)[nH]c(=O)n2C | i
O=c1ccc(-c2nc(-c3cnccn3)no2)cn1Cc1ccccc1F | i
O=C(NCc1cccs1)N(CCc1cccs1)C1CC1 | i

2 compounds picked at random from the list so far:
Molecule | GIRK2 activ
CCn1c(N=Cc2ccccc2Cl)nc2c1c(=O)[nH]c(=O)n2C | i
O=c1ccc(-c2nc(-c3cnccn3)no2)cn1Cc1ccccc1F | i

(list continues)
Molecule | GIRK2 activ
CCc1ccc(NCc2cc3cc4c(cc3n(CC(=O)NCc3ccccc3)c2=O)OCCO4)cc1 | i
O=C(Cn1cnc2c(sc3ncccc32)c1=O)N1CCN(c2ccccc2F)CC1 | i
CCNC(=O)N1CCC(Cn2cnc3ccccc32)CC1 | i
Cc1ccccc1C(=O)N1CCN(S(=O)(=O)c2cc3c4c(c2)CCC(=O)N4CCC3)CC1 | i
O=C(Nc1nccs1)C1CCN(C(=O)c2ccc([N+](=O)[O-])o2)CC1 | i
COc1cccc(-n2cc(C(=O)OC3CCOC3=O)c3ccccc3c2=O)c1 (centres undefined) | i
COc1cccc(-c2noc(C3CCCN(S(=O)(=O)c4ccc(Br)cc4)C3)n2)c1 (centres undefined) | i
O=C(NCc1ccc(C(O)c2cccs2)s1)c1ccco1 (centres undefined) | i
CCCCc1ccc(NS(=O)(=O)c2c(C)n(C)c(=O)n(C)c2=O)cc1 | i
Nc1c(C(=O)NCc2cccs2)c2nc3ccccc3nc2n1/N=C\c1cccc(O)c1 | i
COC(=O)c1ccc(NC(=O)CSc2nc3c(c(=O)[nH]2)CN(Cc2ccccc2OC)CC3)cc1 | i
COc1ccccc1-c1coc2cc(OC(C)=O)cc(OC(C)=O)c2c1=O | i
Cc1cc(NC(=O)C(=O)NC(C)Cc2ccco2)no1 (centres undefined) | i
CCOc1ccc(CCNC(=O)CC2=NS(=O)(=O)c3ccccc3N2)cc1OCC | i
O=C(NCCN1CCN(c2ccccc2)CC1)c1cc2ccccc2oc1=O | i
O=C(Cn1cnc2c(-c3ccc(Cl)cc3)csc2c1=O)Nc1ccc2c(c1)OCO2 | i
Cc1ccc(N)cc1Nc1nccc(-c2cccnc2)n1 | i
COc1ccc(-c2ccc(=O)n(CCNS(=O)(=O)c3cc(F)ccc3F)n2)cc1 | i
Cc1cc(C)n(-c2cc(NCCNC(=O)COc3ccc(-n4cccn4)nn3)ncn2)n1 | i
CN(CC(=O)NCc1nc2ccccc2[nH]1)c1nc2c(F)cccc2s1 | i
COc1cccc(C(=O)Cn2cc(-c3nc(-c4ccsc4)no3)ccc2=O)c1 | i
COc1ccccc1CNC(=O)C(=O)NCC(C)(O)CCSC (centres undefined) | i

Screens deposited in PubChem BioAssay by Vanderbilt University.
